VDR inhibitor = Inhibitors of the vitamin D receptor (VDR): qHTS; VDR-SRC2-3 peptide fluorescence polarization, 2 h; actives 0.93% (n = 400,000); Potency, µM, without a hit: max response, negative = inhibition, most hits filed as inhibitors; Vitamin D3 receptor (Homo sapiens), P11473; active = well fitted inhibition curve with a large enough effect; inconclusive = small, poorly fitted or top-dose-only effect, or another doubt; inactive = no such curve, though single readings can be large or run the other way; note: series mostly up to about 120 µM
Target sequence (P11473 whole entry, looked up): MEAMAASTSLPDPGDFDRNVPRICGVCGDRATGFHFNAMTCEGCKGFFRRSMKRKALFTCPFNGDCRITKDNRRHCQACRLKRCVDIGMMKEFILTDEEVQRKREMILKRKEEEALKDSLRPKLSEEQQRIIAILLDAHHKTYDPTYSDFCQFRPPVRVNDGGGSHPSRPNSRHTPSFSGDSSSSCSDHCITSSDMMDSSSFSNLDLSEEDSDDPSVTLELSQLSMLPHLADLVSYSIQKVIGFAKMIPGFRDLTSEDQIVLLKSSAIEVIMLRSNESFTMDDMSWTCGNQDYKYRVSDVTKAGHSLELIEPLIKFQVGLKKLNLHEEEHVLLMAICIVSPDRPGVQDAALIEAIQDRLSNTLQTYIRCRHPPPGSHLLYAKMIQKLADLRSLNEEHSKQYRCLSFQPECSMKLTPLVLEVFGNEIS
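FP read-out; VDR + SRC2-3 coactivator peptide; 23 nl compound by pintool; 2 h RT incubation; reagents held at 4 deg C, protected from light.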
Active calls of the source: *; ? = inconclusive; & = joins results of further samples. % is set by controls: 0 for no effect and ±100 for the full control effect; potency is the fitted concentration of half-maximal effect. Only part of the results is shown; count on the stated rates, not on these rows.

VDR inhibitor | mol
-7% | N/C(=N\OC(=O)c1ccc(Cl)cc1)c1cccnc1
3% | COC(=O)C1CCN(S(=O)(=O)c2ccc(N3CCCCS3(=O)=O)cc2)CC1
-15% | Cc1cccc(NC(=O)CC23CC4CC(C2)CC(n2nnc(C)n2)(C4)C3)c1
4% | COc1cc(OC)cc(C(=O)NNC(=O)c2ccc(-n3cncn3)c([N+](=O)[O-])c2)c1
5% | COc1ccc(-c2c(-c3ccc(C#N)cc3)oc(=O)c3cc(OC)c(OC)cc23)cc1
0% | CCN(CC)C(=O)CSc1nnc(CCN)o1
-10% | O=C1C2C3C=CC(C3)C2C(=O)N1c1ccncc1 (configuration not stated)
10% | O=C(NCc1ccco1)C(C(=O)c1ccc(F)cc1)n1ccccc1=O (configuration not stated)
1% | COc1ccc(-n2nc(C(=O)NCC(=O)N3CCCCC3)c3ccccc3c2=O)cc1
4% | O=C(COC(=O)Cc1n[nH]c(=O)c2ccccc12)Nc1ncc(Cl)cc1Cl
-10% | CCCCOC(=O)/C=C\C(=O)NC(N)=O
10% | CCC(=O)Nc1cc2c(C)cc(=O)oc2cc1C
-8% | N#Cc1c(N)n[nH]c1Cc1cccc2ccccc12
3% | COc1cc(C(=O)NCCC(=O)NCCN2CCOCC2)cc(OC)c1OC
-5% | CCCOc1cccc(C(=O)Nc2cccc(NC(=O)c3ccc(Cl)cc3Cl)c2)c1
-11% | O=C(COC(=O)/C=C/c1ccc([N+](=O)[O-])cc1)NCC1CCCO1 (configuration not stated)
-10% | CCCCC/C=C\C/C=C\C/C=C\C/C=C\CCCCCC(=O)NC(C)C(=O)O (configuration not stated)
-19% | COC(=O)c1ccccc1NC(=O)c1ccc(COc2ccccc2Cl)o1
-25%&-3% | Cc1cccc(C(=O)N=c2c(C#N)cc3c(=O)n4cccc(C)c4nc3n2Cc2ccco2)c1
-1% | Cc1cc(C)n2c(nc3ccccc32)c1C(=O)NN
4% | Cc1ccc(C(=O)C2CC2)cc1C
-6% | CC1CCN(c2nnc(-n3cccc3CNc3cccc(F)c3)s2)CC1
9% | CC(C)CCNC(=O)CNC(=S)N(CCCN1CCOCC1)Cc1cccs1
-1% | CC1CCN(Cc2c(C(=O)N/N=C/c3ccc(C(F)(F)F)cc3)nnn2-c2nonc2N)CC1
2% | COc1ccccc1N1C(C)=CC(=C(C#N)c2nc3ccccc3s2)C=C1C
13% | O=C(c1cccc(-n2cccc2)c1)N1CCN(S(=O)(=O)c2ccccc2Br)CC1
-3% | O=C1CC(N2CCN(c3ccc(S(=O)(=O)N4CCCC4)cc3)CC2)C(=O)N1c1ccc(F)cc1 (configuration not stated)
1% | O=C(COc1ccc(Cl)cc1Cl)NCC(=O)N/N=C/c1c[nH]c2ccccc12
-6% | COc1cccc(/C=N/n2c(-c3cc(C)[nH]n3)n[nH]c2=S)c1OC
-10% | Cc1nn(C)c(C)c1/C=C/C(=O)O

3 structures out of the list, sorted by length of the SMILES, ascending.
VDR inhibitor | mol
-6% | CC1CCN(c2nnc(-n3cccc3CNc3cccc(F)c3)s2)CC1
2% | COc1ccccc1N1C(C)=CC(=C(C#N)c2nc3ccccc3s2)C=C1C
1% | O=C(COc1ccc(Cl)cc1Cl)NCC(=O)N/N=C/c1c[nH]c2ccccc12

The listing continues:
VDR inhibitor | mol
? | CSCCC(NS(=O)(=O)c1cc(C(=O)O)ccc1Cl)C(=O)O (configuration not stated)
-3% | Cc1c(Cl)cccc1NC(=S)Nc1ccc2[nH]c(=O)[nH]c2c1
-19% | CC(C)C(=O)Nc1ccc(NC(=O)c2ccc3c(c2)OCO3)cc1
-16% | CC(=O)Nc1ccccc1C(=O)C(=O)Nc1ccccc1
-1% | Cc1cc(Oc2ccccc2)nc(SCC(=O)Nc2ccc(Cl)cc2Cl)n1
21% | Cc1cccc(N(Cc2ccccc2)C(=O)c2ccccc2S(C)(=O)=O)c1
4% | CCc1ccc(NC(=O)Cn2nnc(C(=O)Nc3cc(C)ccc3OC)c2N)cc1
-13% | COC(=O)c1ccccc1NC(=O)c1onc(C)c1Cl
-1% | COc1cc(NC(=O)Cc2cccs2)c(C(=O)O)cc1OC
-1% | CN1CCN(CC(O)COc2ccc(S(=O)(=O)N3CCOCC3)cc2)CC1 (configuration not stated)
-2% | COc1ccc(Br)cc1C(=O)NC(=S)Nc1c(C)n(C)n(-c2ccccc2)c1=O
1% | CCOc1ccc(N2C(=O)CC(Cc3cc(C)cc(C)c3)C2=O)cc1 (configuration not stated)
5% | Cc1ccc(/C=C/C(=O)O)cc1S(=O)(=O)NCCCO
-4% | Fc1cccc(NC(=S)NCc2ccccc2Cl)c1
3% | COc1ccc(-n2cc(CN3CCC(OC)CC3)c(-c3cccc(F)c3)n2)cc1
-22% | N#CCCN(C(=O)COC(=O)CNC(=O)C12CC3CC(CC(C3)C1)C2)c1ccccc1
-17% | CCOc1ccc(NC(=O)COc2ccc(C(=O)N3CCC(C(N)=O)CC3)cc2OC)cc1
-19% | Cc1cccc(CNc2ncncc2-c2cccnc2)c1
-9% | O=C(Nc1ccc(-n2nncc2-c2ccccc2)cc1)c1ccccc1
7% | Cc1cc(C)cc(N(CCC#N)C(=O)CN2C(=O)NC3(CCCC3)C2=O)c1
? | Cc1ccc(C(=O)CNc2cccc(Cl)c2)cc1
-7% | C/C(=C/C(=O)N1CCc2ccccc21)C(=O)O
-12% | COc1cccc2cc(C(=O)OCC(=O)NCc3ccc4c(c3)OCO4)c(=O)oc12
-2% | Clc1ccc(/C=N/NC2=Nc3cccc4cccc2c34)cc1
-5% | CCc1ccccc1N1C(=O)C2C3C=CC(CC3)C2C1=O (configuration not stated)
2% | CCN(CC)CCOC(=O)c1cccc(OC)c1
-13% | Cc1cc2cc(CN(CC3CCCO3)C(=S)NCc3ccco3)c(=O)[nH]c2cc1C (configuration not stated)
-3% | COc1ccc(N2CCN(C(=O)c3cc(C)oc3C)CC2)cc1
-2% | CCOc1ccccc1C1CC(=O)NC2=C1C(=O)CC(C)(C)C2 (configuration not stated)
5% | COc1ccc([N+](=O)[O-])cc1N(CC(=O)O)S(C)(=O)=O
20% | Cc1ccc(C)c(OC(=O)CSc2nnc(CNC(=O)c3ccccc3)o2)c1
? | COc1ccc(/C=C/C(=O)c2ccc(Cl)cc2)c(OC)c1
6% | Cc1ccc(NC(=O)Cc2nc(CSc3nnc(-c4ccc5c(c4)OCO5)o3)cs2)cc1
-9% | C/C(=N\Nc1nc2ccccc2[nH]1)c1cccs1
6% | CC(C)C12CN3CC(C(C)C)(CN(C1)C3c1ccc(OCc3ccccc3)cc1)C2=O (configuration not stated)
-21% | CCN(CC)CCCNC(=O)COc1ccc2oc3c(c2c1)CCCC3
7% | COc1ccc(NC(=S)Nc2ncccc2C)c(OC)c1
9% | C#CC(CCN1CCCCC1)(OC)c1ccccc1 (configuration not stated)
-26% | Cc1cc(C)nc(NNS(=O)(=O)c2c(F)cc(F)cc2Br)n1
-8% | CCOC(=O)N1CCN(C(=O)C2CCN(S(=O)(=O)c3cc(Cl)ccc3Cl)CC2)CC1
13% | Cc1noc(C)c1S(=O)(=O)N(C)CC(=O)Nc1ccc(F)cc1
-12% | O=c1nc(-c2ccccc2Cl)c2cc(F)ccc2[nH]1
-11% | CCOc1ccc(C(=O)Nc2c(C(=O)Nc3ccccc3OC)oc3ccccc23)cc1OCC
12% | CC(CC(=O)Nc1ccc2c(c1)OCCO2)c1ccccc1 (configuration not stated)
5% | COc1ccc(C(=O)NNc2ncnc3c2cnn3-c2ccc(C)c(Cl)c2)cc1
-23% | CN(C)CC(=O)N1c2ccccc2CCc2ccc(NC(=O)c3ccc(N)cc3)cc21
-13% | CC1(C)Cc2nc(-c3ccccc3)n3cnnc3c2CO1
2% | CCOc1ccccc1CNC(=O)C1CCCN(c2nn3c(=O)cc(C)nc3s2)C1 (configuration not stated)
-13% | COc1cccc(/C=N/NC(=O)c2nnn(-c3nonc3N)c2CN(C)c2ccccc2)c1
12% | Cc1nn(C)c(C)c1CN(C)C(=O)c1cnn2c1NC(c1ccccc1)CC2C(F)(F)F (configuration not stated)

Seven compounds drawn at random from those above, as already listed:
VDR inhibitor | mol
-15% | Cc1cccc(NC(=O)CC23CC4CC(C2)CC(n2nnc(C)n2)(C4)C3)c1
-23% | CN(C)CC(=O)N1c2ccccc2CCc2ccc(NC(=O)c3ccc(N)cc3)cc21
-1% | Cc1cc(Oc2ccccc2)nc(SCC(=O)Nc2ccc(Cl)cc2Cl)n1
4% | Cc1ccc(C(=O)C2CC2)cc1C
-1% | Cc1cc(C)n2c(nc3ccccc32)c1C(=O)NN
13% | Cc1noc(C)c1S(=O)(=O)N(C)CC(=O)Nc1ccc(F)cc1
0% | CCN(CC)C(=O)CSc1nnc(CCN)o1

Following part.
VDR inhibitor | mol
6% | CCCCOc1ccccc1P(=O)(O)CP(=O)(c1ccccc1)c1ccccc1
-8% | O=C(C[n+]1cc(Br)cc(Br)c1)c1ccccc1
1% | O=C(O[C@H]1CN2CCC1CC2)N1CCc2ccccc2[C@@H]1c1ccccc1
-16% | CC(CNC(=S)Nc1cc(F)cc(F)c1)CSc1ccc(Cl)cc1 (configuration not stated)
10% | COc1cc(Cl)c(C)cc1NC(=O)COC(=O)c1cnc(C)cn1
11% | Cc1cc(-c2ccccc2)nc2cc(C(N)=O)nn12
-2% | C[C@H](CO)N1C[C@H](C)[C@@H](CN(C)S(=O)(=O)c2ccc(F)cc2)Oc2c(NC(=O)c3ccncc3)cccc2C1=O
11% | CC1=CC(C)(C)N(S(=O)(=O)c2ccc(F)cc2)c2ccccc21
10% | Cc1cn2c(=O)cc(COC(=O)c3ccc(NC(=O)c4ccc(F)cc4)cc3)nc2s1
-12% | O=C(Oc1cccc2cccnc12)c1ccc(N2C(=O)C3C4CCC(C4)C3C2=O)cc1 (configuration not stated)
-6% | CCc1nnc(NC(=O)CSc2ccc(-c3ccccc3OC)nn2)s1
-4% | Cc1nnc2sc(-c3ccco3)nn12
-6% | Cc1ccc(N(Cc2ccccc2)C(=O)c2ccc(C)c(S(=O)(=O)N3CCOCC3)c2)cc1
-18% | CS(=O)(=O)N(CC(=O)N1CCCC1)Cc1ccc(Cl)c(Cl)c1
9% | CCOC(=O)C1=C(COC(=O)c2ccco2)NC(=O)NC1CC (configuration not stated)
-19% | O=C(N/N=C/c1c(F)cccc1Cl)C1CC1
5% | CCN(CC)C(c1ccc(F)cc1)c1nnnn1CC1CCCO1 (configuration not stated)
-17% | COc1cccc(C(=O)NCCS(=O)(=O)N2CCOCC2)c1
1% | O=C(COC(=O)c1cccc(Br)c1)NCC1CCCO1 (configuration not stated)
-20% | O=c1cc(-c2ccc(O)cc2)oc2cc(O)c(C3OC(CO)C(O)C(O)C3O)c(O)c12 (configuration not stated)

By substructure: the compounds so far containing a CF3 group.
VDR inhibitor | mol
-1% | CC1CCN(Cc2c(C(=O)N/N=C/c3ccc(C(F)(F)F)cc3)nnn2-c2nonc2N)CC1
12% | Cc1nn(C)c(C)c1CN(C)C(=O)c1cnn2c1NC(c1ccccc1)CC2C(F)(F)F (configuration not stated)

(further entries)
VDR inhibitor | mol
-2% | CCN1C(=O)[C@H]2[C@H]3CN=C(SCc4ccc(C(=O)OC)cc4)N3[C@@](CC)(C(=O)OC)[C@H]2C1=O
-7% | Cc1ccccc1OCc1nc(C#N)c(N2CCCC2)o1
13% | O=C(NCc1ccco1)c1ccc(COCC(F)(F)C(F)F)cc1
-3% | O=C(O)c1ccc(C(=O)Nc2cccc3ccccc23)c(C(=O)O)c1
-4% | CN1CCN(CCCNC(=O)Cn2c(-c3cccs3)cc3cc(Cl)ccc32)CC1
-8% | On1c(-c2ccco2)nc2c1CCc1nonc1-2
5% | COc1ccc(-n2nc(C(=O)Nc3ccc4c(c3)OCO4)c3ccccc3c2=O)cc1
-3% | O=C(Nn1c(C2CCC2)nc2ccccc2c1=O)c1cccs1
4% | c1ccc(-c2nnc(SCCC3OCCCO3)o2)cc1
-7% | CC(=O)Nc1ccc(N/C(=N\S(=O)(=O)c2ccccc2)c2ccccc2)cc1

Part of the list above, as labelled records:
On1c(-c2ccco2)nc2c1CCc1nonc1-2
- VDR inhibitor = -8%
COc1ccc(-n2nc(C(=O)Nc3ccc4c(c3)OCO4)c3ccccc3c2=O)cc1
- VDR inhibitor = 5%
O=C(Nn1c(C2CCC2)nc2ccccc2c1=O)c1cccs1
- VDR inhibitor = -3%
c1ccc(-c2nnc(SCCC3OCCCO3)o2)cc1
- VDR inhibitor = 4%

Additional compounds.
VDR inhibitor | mol
20% | Cc1nn(CC(=O)Nc2cc(F)ccc2F)c(=O)c2cccn12
-5% | COc1ccc(CNC(=O)Cc2c(C)c3cc4c(C)coc4cc3oc2=O)cc1OC
-14% | CCN(CC)S(=O)(=O)c1ccc(Cl)c(NC(=O)CSc2nnc(-c3cccs3)o2)c1
6% | CCCNC(=O)Nc1cc(C)on1
-3% | CNC(=S)Nc1ccc([N+](=O)[O-])cc1
13% | CCOc1ccccc1NC(=O)c1c(NCc2cccs2)sc2c1CCCCC2
15% | Cc1oc2c(cc(NS(=O)(=O)c3ccc4c5c(cccc35)C(=O)N4)c3ccccc32)c1C(=O)OC(C)C
? | FC(F)(F)c1cnc(-c2cnc(-c3cccnc3)nc2)c(Cl)c1
-1% | O=[N+]([O-])c1ccc(C(=S)N2CCN(Cc3ccccc3)CC2)cc1
-8% | CCOC(=O)C1CCN(C(=O)Cn2cc(C(=O)OC)c3ccccc32)CC1
-5% | Cc1ccccc1COC(=O)CCC1=NS(=O)(=O)c2ccccc2N1
-7% | COCc1ccc(C(=O)NC2CCCc3c2cnn3-c2cc(C)cc(C)c2)s1 (configuration not stated)
? | c1ccc(-c2nc(-c3cccs3)c(NC3CCCCC3)o2)cc1
-1% | O=C(Cc1ncc(C(F)(F)F)cc1Cl)NC1CC1
-7% | CN(C(=O)CSc1nc2ccc([N+](=O)[O-])cc2s1)C1CCS(=O)(=O)C1 (configuration not stated)
-18% | CC(/C=N/n1c(COc2ccccc2)n[nH]c1=S)=C\c1ccco1
-9% | Cc1nc(SCC(=O)N2CCCCC2)c2c(C)c(C)sc2n1
-20% | CCN(CC(=O)Nc1ccc2c(c1)OCCO2)C(=O)COc1ccc(C)cc1
